Six1-Eya2 blk – qHTS Assay for Inhibitors of the Six1/Eya2 Interaction; Homeobox protein SIX1 (Homo sapiens) + Protein phosphatase EYA2 (Homo sapiens), …; AlphaScreen GST-Six1/His-Eya2 binding, biochemical; active compounds read low; control for the full effect not named in the record; activity change, % (concentration not given with the values); 360,000 compounds, 0.56% hits; in the data active = activity change below about -65%; inconclusive = about -30% to -65%; inactive = above about -30%; also: % is scaled to controls: 0 for no effect and ±100 for the full control effect
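GST-Six1 + His-Eya2 (5X stock: 250/500 nM); Tris pH 8.0, 300 mM NaCl, 0.05% BSA, 0.02% Tween 20; GSH donor/Ni acceptor beads; 1 h 37 °C dark; AlphaScreen readout.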
D2 potentiator – Beta-Arrestin HTS for Positive Allosteric Modulators of the Human D2 Dopamine Receptor: Potentiators | 360,000 compounds, 0.23% hits | potentiation, % (no concentration beside the values) | DiscoveRx D2 beta-arrestin cells, luminescence, 90 min; 100% = 57 uM dopamine signal; active = potentiation of 50% or more; inconclusive = 30% to 50%; inactive = 30% or less;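 also: compound concentration not given in the record; tested on top of an EC20 dose of dopamine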
Target sequence (P14416 whole entry, looked up): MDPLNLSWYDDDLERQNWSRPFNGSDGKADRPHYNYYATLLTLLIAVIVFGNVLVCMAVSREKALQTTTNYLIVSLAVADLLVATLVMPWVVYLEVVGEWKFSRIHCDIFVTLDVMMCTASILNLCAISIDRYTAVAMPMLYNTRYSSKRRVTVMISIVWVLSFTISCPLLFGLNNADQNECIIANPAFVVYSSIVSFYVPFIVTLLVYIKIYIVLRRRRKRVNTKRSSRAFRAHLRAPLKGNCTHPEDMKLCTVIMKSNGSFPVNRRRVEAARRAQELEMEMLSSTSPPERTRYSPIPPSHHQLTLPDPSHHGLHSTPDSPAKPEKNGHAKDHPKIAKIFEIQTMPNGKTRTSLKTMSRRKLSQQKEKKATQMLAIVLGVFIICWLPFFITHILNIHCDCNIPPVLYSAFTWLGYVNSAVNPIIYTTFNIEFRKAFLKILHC
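PathHunter D2 cells, attached overnight at 37 deg C, received compound in DMSO plus dopamine at EC20 (50 nM final) for 90 min at 37 deg C. Beta-arrestin recruitment was read as luminescence after 1 h with detection reagent at ambient temperature.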
TRPML1 blocker – qHTS for Inhibitors of the Human Mucolipin Transient Receptor Potential 1 (TRPML1); Mucolipin-1 (Homo sapiens), Q9GZU1; TRPML1-inducible cells, Ca2+ dye fluorescence, FDSS; active compounds read low; inhibition of EC80 agonist-evoked calcium signal; activity change, negative = inhibition, % (test concentration not listed); 390,000 compounds, 0.02% hits; in the data active means activity change below about -50%; inconclusive means about -30% to -50%; inactive means above about -30%;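 also: stimulus is agonist 54-4 at its EC80 concentration; % is scaled to controls: 0 for no effect and ±100 for the full control effect; compound concentration not given in the record; the text of the record puts the active cut at -80%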
Target sequence (Q9GZU1 whole entry, looked up): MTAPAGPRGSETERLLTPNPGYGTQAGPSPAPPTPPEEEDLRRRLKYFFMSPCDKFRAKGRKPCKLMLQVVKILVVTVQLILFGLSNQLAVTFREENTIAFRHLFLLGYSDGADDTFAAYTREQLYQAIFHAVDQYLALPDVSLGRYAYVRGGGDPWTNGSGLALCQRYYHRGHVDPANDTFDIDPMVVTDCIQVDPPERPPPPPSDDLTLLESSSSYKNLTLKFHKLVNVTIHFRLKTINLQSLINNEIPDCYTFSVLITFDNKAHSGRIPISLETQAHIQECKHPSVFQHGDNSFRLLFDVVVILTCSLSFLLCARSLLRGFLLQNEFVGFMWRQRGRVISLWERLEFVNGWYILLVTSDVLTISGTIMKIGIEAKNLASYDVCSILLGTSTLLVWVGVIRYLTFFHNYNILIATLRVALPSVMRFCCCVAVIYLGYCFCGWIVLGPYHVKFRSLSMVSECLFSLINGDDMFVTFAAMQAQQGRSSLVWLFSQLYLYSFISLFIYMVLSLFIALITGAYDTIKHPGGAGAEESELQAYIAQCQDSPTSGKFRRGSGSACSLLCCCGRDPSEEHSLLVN
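TRPML1-DL cells, Tet-induced overnight (~16 h, 37 °C) at 1,500 cells/well, were loaded with Ca8 no-wash dye plus quencher for 45-90 min at room temperature. Compounds were pinned during FDSS kinetic reading; agonist 54-4 at EC80 (4 uM final) then added.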
CtBP-E1A blk – qHTS Assay for Inhibitors of the CtBP/E1A Interaction; activity change, % (no concentration beside the values); AID 651724, 2012; AlphaScreen GST-E1A/His-CtBP binding, 1536-well; active compounds read low; control for the full effect not named in the record; 340,000 compounds, 0.49% hits; in the data active means activity change below about -65%; inconclusive means about -30% to -65%; inactive means above about -30%; also: % is scaled to controls: 0 for no effect and ±100 for the full control effect
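AlphaScreen with 125 nM GST-E1A and 125 nM His-CtBP (5X stocks) in Tris pH 8.0, 300 mM NaCl, BSA, Tween 20, TCEP. Compounds preincubated 2 h at 37 deg C, then glutathione donor/nickel acceptor beads added for 1 h at 37 deg C in dark.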
TRPV1 PAM – HTS Assay for Compounds that Act as Potentiators of the Vanilloid Receptor 1; 320,000 compounds, 0.02% hits; potentiation, % at 8.33 µM; TRPV1-expressing cells, Fluo-8 calcium influx, capsaicin EC20 potentiation; host cell line not named in the record; control for the full effect not named in the record; AID 540277, 2011; active means potentiation above 80%; inconclusive means 30% to 80%; inactive means below 30%; also: 0% is about no effect
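Fluo-8 calcium influx in TRPV1-expressing cells, kinetic read (ex 480/em 520 nm). Compound added and read 3 min for agonist activity, followed by capsaicin at EC20 final and 2 min further read for enhancement.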
TRPML1 ag – qHTS for Agonists of the Human Mucolipin Transient Receptor Potential 1 (TRPML1); TRPML1-expressing cells, Ca2+ dye fluorescence, FDSS; host cell line not named in the record; reference of the full effect not given here; Mucolipin-1 (Homo sapiens), Q9GZU1; activation, % (test concentration not listed); 410,000 compounds, 0.12% hits; in the data active = activation above about 50%; inconclusive = about 30% to 50%; inactive = below about 30%; also: 0% is about no effect; the text of the record puts the active cut at 80%
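Kinetic FDSS Ca2+ read in Tet-induced TRPML1-DL cells (ABD Ca8 dye plus quencher, 45-90 min RT loading): baseline, then compound, then 110 s agonist window; EC80 agonist 54-4 at 4uM final added afterwards for a 110 s antagonist window.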
* marks the source's active call; other numbers are inactive results; ? = inconclusive; . = not tested or not shown; & = joins results of further samples.

SMILES	Six1-Eya2 blk	D2 potentiator	TRPML1 blocker	CtBP-E1A blk	TRPV1 PAM	TRPML1 ag
O=C(Nc1ccccc1)Nc1nnc(Cc2ccc(F)cc2)s1	-1	-6	-10	.	28	-0.5
O=C(NCCc1ccccc1)C1CCN(C(=O)c2ccc([N+](=O)[O-])cc2)CC1	1	3	0	.	-3	-0.9
CC(C)C(=O)Nc1nnc(SCC(=O)NCc2cccs2)s1	31	-8	-1	0	?	-0.3
CC(=O)N1CCN(S(=O)(=O)c2cccc(C(=O)NC3CCCC3)c2)CC1	7	-2	16	.	-2	0.3
Cc1ccc(S(=O)(=O)N(C)C)cc1NC(=O)COC(=O)COc1ccc2c(c1)CCC2	-5	-32	8	9	8	0.0
COc1ccccc1C(=O)NC(=S)/C=C1/N(C)c2ccccc2C1(C)C	-73*	-15	-5	-74*	-3	5.5
O=C(OCC(=O)c1cccs1)c1ccc(NC(=O)c2ccco2)cc1	0	9	2	-9	-11	0.2
CCSc1nc2ccccc2n1CCOc1ccccc1	13	-1	-3	8	-6	-0.5
COc1ccc2c(C)c(C(=O)N3CC[C@@H](N4CCC(O)CC4)[C@H](O)C3)oc2c1	-2	2	13	9	0	-0.4
COc1ccc(S(=O)(=O)N2CCOC2CNC(=O)C(=O)NCCc2c[nH]c3ccccc23)cc1C (stereo unspecified)	15	-2	-11	8	6	0.1
COC(=O)C1=C(C)N=C2SC(C#N)=C(N)N2C1c1ccc(OC)cc1 (stereo unspecified)	2	-6	17	0	-4	0.4
O=C(NCCc1ccccn1)c1cncc(Br)c1	23	4	6	0	-3	-0.7
CCOc1ccc2nc3sc(C(=O)N4CCOCC4)c(N)c3cc2c1	9	0	27	6	-7	-0.3
Fc1ccc2cc(-c3ccccc3)ncc2c1	13	-44	-13	0	.	0.7
CC1CCN(C(=O)COC(=O)CCC(=O)c2ccc(F)cc2)CC1	9	-7	-17	11	.	-0.2
CCOC(=O)CCc1c(C)nc(SCCN2CCCC2)c(C#N)c1C	-2	-22	15	0	2	1.0
COc1ccc(NC(=O)Nc2ccc3c(c2)CC(=O)N([C@H](C)CO)C[C@@H](C)[C@H](CN(C)C(=O)Nc2ccccc2)O3)cc1	-1	-6	3	-20	.	-0.3
Cc1cc(OC(C)C(=O)NCc2ccccn2)c2c(C)cc(=O)oc2c1 (stereo unspecified)	0	5	-2	0	-11	0.7
Cc1ccccc1NC(=S)NC(NC(=O)N(C)C)C(Cl)(Cl)Cl (stereo unspecified)	5	1	9	1	1	0.6
CCN(Cc1ccccc1)C(=O)CCNS(=O)(=O)c1ccc2c(c1)CC(C)N2C(C)=O (stereo unspecified)	-1	4	17&-15	.	-7	0.9&1.1
CN(C(=O)COC(=O)c1cccc(S(=O)(=O)N(C)c2ccccc2)c1)C1CCCCC1	-2	-1	11	0	-19	0.5
CCCOc1ccc(Cc2c(O)nc(SC)[nH]c2=O)cc1C	-2	-3	25	-10	-12	0.4
Cc1ccc(S(=O)(=O)N2CCCN(S(=O)(=O)c3ccccc3Br)CC2)cc1	2	.	-9	9	.	-0.6
Cc1cccc(C(=O)NNC(=O)CN2C(=O)c3ccccc3C2=O)c1	9	-8	-14	16	-3	1.8
Cc1ccc(NC(=O)Cn2c(O)c(N=NC(=O)c3cc4ccccc4cc3O)c3ccccc32)cc1	16	-11	15	0	2	0.2
CC1Cc2ccccc2N1Cc1ccc([N+](=O)[O-])cc1 (stereo unspecified)	?	-2	35	?	-1	1.5
COc1ccc(OC)c(NC(=O)N2CCCc3ccccc32)c1	-13	3	2	-5	4	0.4
O=c1c([N+](=O)[O-])cccn1Cc1cccc(Cl)c1	-7	-1	13	1	4	0.5
CCOC(=O)C1CCCN(S(=O)(=O)c2cc(Br)cc3c2N(C(=O)C2CC2)CC3)C1 (stereo unspecified)	-1	2	15	-1	3	-0.4
CC(=O)Nc1ccc(C(=O)c2ccccc2)cc1	18	-2	-6	0	-12	0.0
COc1ccc(OC)c(NC(=O)c2cccnc2Sc2ccccc2)c1	1	-8	8	-10	5	-0.1
O=C1NC(=O)/C(=C\c2ccc(OCc3cccc([N+](=O)[O-])c3)cc2)N1	0	23	4	-5	-16	-1.3
O=C(Nc1nnc(C2CC2)s1)c1cc2ccccc2o1	-2	0	-10	1	-10	-0.5
O=C(/C=C/c1ccco1)N1CCN(S(=O)(=O)c2cccs2)CC1	-5	-5	18	-1	0	0.0
Cc1cccc(NC(=O)c2csnn2)n1	-3	4	-20	1	3	-0.6
Nc1nc(SCC(=O)Nc2ccc(OC(F)(F)F)cc2)[nH]c(=O)c1NC(=O)c1ccc(Br)o1	6	-6	1	-5	20	-0.1

Two entries from above, comma-delimited:
SMILES,Six1-Eya2 blk,D2 potentiator,TRPML1 blocker,CtBP-E1A blk,TRPV1 PAM,TRPML1 ag
COc1ccc(OC)c(NC(=O)c2cccnc2Sc2ccccc2)c1,1,-8,8,-10,5,-0.1
O=C1NC(=O)/C(=C\c2ccc(OCc3cccc([N+](=O)[O-])c3)cc2)N1,0,23,4,-5,-16,-1.3

Remaining list, next part.
SMILES	Six1-Eya2 blk	D2 potentiator	TRPML1 blocker	CtBP-E1A blk	TRPV1 PAM	TRPML1 ag
Cc1cc(C2=NNC(=Nc3ccccc3)SC2)c(C)n1C	0	6	5	1	4	3.8
Cc1cc([N+](=O)[O-])ccc1Nc1nc2ccccc2n2cnnc12	-12	3	-4	.	8	0.9
Cc1cccc(N2CCN(C(=O)CS(=O)(=O)Cc3nc(-c4ccccc4F)oc3C)CC2C)c1 (stereo unspecified)	-5	-5	3	-7	19	-0.1
CCOc1ccc2[nH]c(O)c(NC(C)=O)c2c1	-2	4	-12	-8	7	0.1
O=C(O)CSCC(=O)c1ccccc1	4	-11	4	19	-9	-0.5
CCOC(=O)c1oc2ccc(S(=O)(=O)n3nc(-c4ccccc4)cc3N)cc2c1C	-7	-3	43	3	14	0.9
OCCC1CN(Cc2cccn2-c2ncccn2)CCN1Cc1ccc(F)cc1 (stereo unspecified)	6	-6	-2	-15	-4	0.4
Cn1c2ccccc2c2c(C(=O)NCC3CCCO3)cn(C3CCCC3)c(=O)c21 (stereo unspecified)	-17	-9	4	4	8	-1.3
CC(C)CCNC(=O)NC(=O)COc1ccccc1C#N	1	-20	-17	-1	-29	0.2
COc1cc(OC)cc(C(=O)N2CCC3(CC2)NCCc2[nH]cnc23)c1	3	-13	15	-2	-3	-0.4
COc1ccc(N2CCN(CC(=O)c3ccc(O)c(C)c3O)CC2)cc1	-9	-12	11	.	-8	0.3
Cc1noc(C)c1C(=O)N(CC(=O)NC1CCCC1)Cc1ccccc1F	2	-19	37	1	4	0.1
N#CC(Cc1ccc(OC(F)F)cc1)c1nc2ccccc2[nH]1 (stereo unspecified)	-8	-7	-3	-9	5	0.3
O=C1CN=C(Nc2cccc(C(F)(F)F)c2)N1C1CCCC1	-2	1	-12	6	-9	0.8
CCOC(=O)C1=C(C)N(CCCC(=O)O)C(=O)NC1c1ccccc1 (stereo unspecified)	0	-5	-2	3	.	-0.3
COc1ccc(CN2C(=O)C(CC(=O)NC3CCCC3)CC(C(=O)N3CCOCC3)=C2C)cc1 (stereo unspecified)	8	-7	-3	4	.	0.7
COc1ccc(C)cc1NC(=O)CCN1CC(C)OC(C)C1 (stereo unspecified)	-1	-4	-12	14	-4	-0.1
Cc1cc(C)n(-c2ccc(C(=O)OCC(=O)N3CCN(c4ccccc4)CC3)cc2)n1	-2	-2	-2	1	.	-0.8
COc1ccc(N2CCN(C(=O)Cn3nnc(-c4ccccc4N)n3)CC2)cc1	-18	-3	16	-5	13	0.9
Cc1ccccc1C(=O)Nc1ccnn1C1CCN(Cc2cnn(C(C)C)c2)CC1	-2	-25	1	3	-7	0.4
CCn1c(SCC(=O)N2CCCCC2)nc(O)cc1=O	-11	6	3	-1	21	-0.6
CC(NC(=O)c1ccccc1NC(=O)c1ccncc1)c1ccccc1 (stereo unspecified)	-5	-9	-6	-27	3	-0.4
Cc1c(NC(=S)NC(=O)CCc2ccccc2)c(=O)n(-c2ccccc2)n1C	0	-5	4	0	13	-0.4
CC(C)c1ccc2c(c1)C(N1CCNCC1)Cc1ccc(F)cc1S2 (stereo unspecified)	3	-20	33	-4	.	0.7
CCN(CC)S(=O)(=O)c1ccc(NC(=O)c2ccc(Sc3nncn3C)c([N+](=O)[O-])c2)cc1	-8	27	-1	-14	-2	1.0
Cc1ccc(Sc2ccc(CN3CCCC3)cc2[N+](=O)[O-])cc1	?	-12	60	-28	6	1.4
Cc1ccc(Cl)cc1N1CCN(C(=O)c2cn(C)c(=O)c3c2c2ccccc2n3C)CC1	-1	-7	-13	-5	2	0.2
CCN(CC)S(=O)(=O)c1ccc(N2CCN(C)CC2)c(NC(=O)Nc2ccc(C)cc2)c1	-11	-2	17	-1	-1	0.7
Cc1cc(NS(=O)(=O)c2ccc(NC(=O)/C=C/c3c(F)cccc3Cl)cc2)no1	?	2	6	-15	-13	-0.6
CCCc1c(C(=O)N/N=C(\C)c2ccc3c(c2)OCO3)nnn1-c1nonc1N	4	-11	41	2	.	0.2
COc1ccc(CN2C(=O)c3ccccc3C2OC)cc1 (stereo unspecified)	-1	28	.	.	-12	.
CCCCC(NC(=O)Cc1c(C)c2cc3c4c(oc3cc2oc1=O)CCCC4)C(=O)O (stereo unspecified)	31	3	-1	-10	-9	-0.9
O=C(Cc1csc(NC(=O)c2ccc(F)cc2)n1)NO	1	0	13	1	27	0.6
CCc1ccc(NC(=O)COC(=O)CCCC2=NS(=O)(=O)c3ccccc3N2)cc1	6	-6	37&7	-5	5	0.2&-0.7
Cc1cc(C)c2nc(-c3ccccn3)cc(C(=O)Nc3ccc(S(=O)(=O)Nc4cc(C)on4)cc3)c2c1	-2	5	8	-12	-26	1.4
COC(=O)c1c(C(=O)OC)c(-c2cccc(F)c2)n2c1CS(=O)C2 (stereo unspecified)	7	2	-2	8	-7	1.2
c1ccc(N2CCN(c3ccccc3)C2c2ccncc2)cc1	-3	5	-14	10	2	0.4
Nc1cc(Cl)nnc1Cl	-2	0	-5	7	13	1.5
CC(C(=O)Nc1ccccn1)c1ccccc1 (stereo unspecified)	1	0	21	-8	16	1.1
Cc1ccc(CC2C(=O)N(CC(=O)O)C(=O)C2C)cc1 (stereo unspecified)	2	-5	4	0	1	-0.2

2 records picked at random from those above:
SMILES	Six1-Eya2 blk	D2 potentiator	TRPML1 blocker	CtBP-E1A blk	TRPV1 PAM	TRPML1 ag
Nc1cc(Cl)nnc1Cl	-2	0	-5	7	13	1.5
c1ccc(N2CCN(c3ccccc3)C2c2ccncc2)cc1	-3	5	-14	10	2	0.4
